ClpP mod: qHTS Assay for Activators of ClpP | ATP-dependent Clp protease proteolytic subunit (Bacillus subtilis (strain 168)), P80244 | actives 1.9% (n = 340,000) | Potency, µM (top dose mostly 57.5 µM), inactives show at the highest dose activity change, negative = active | purified B. subtilis ClpP, FRET peptide cleavage, 20 min; active = well fitted falling curve with a large enough effect; inconclusive = small, poorly fitted or top-dose-only effect; inactive = no such curve, though single readings can be large or run the other way; further: potency means the concentration at half of the fitted maximal effect; the source files actives as falling curves though it sought activators and does not explain the sign; nearly all actives have a fitted effect of over 65% in size; many hits overshoot -100%
Target sequence (P80244 whole entry, looked up): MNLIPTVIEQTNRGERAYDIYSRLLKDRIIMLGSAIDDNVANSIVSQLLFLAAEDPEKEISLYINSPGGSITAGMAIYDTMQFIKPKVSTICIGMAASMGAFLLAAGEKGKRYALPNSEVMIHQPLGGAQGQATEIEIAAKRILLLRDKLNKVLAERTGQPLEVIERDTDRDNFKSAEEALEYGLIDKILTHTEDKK
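FRET quenching reversal measured ClpP activation: 10 microg/mL B. subtilis ClpP at pH 8 with the FRET-FV decapeptide, read at 430 nm after 320 nm excitation. The 20-min minus 0-min signal was scaled between DMSO/no-enzyme wells and ADEP (5.8 microM final).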
Menin-MLL FL inh: displaces fluorescein MLL peptide from human menin; Fluorescence polarization, fluorescein-MLL peptide displacement from menin; FP activity change, % at 61.4 µM; 290,000 tested, under 10 active; AID 1766; inconclusive = falling polarisation curve, or a change in total fluorescence; inactive = total fluorescence flat and polarisation flat or rising; no compound was filed as active; the % refers to the polarisation; negative = inhibition;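 further: % of control where 0% means no effect; inhibitors lower the polarisation; unlabelled MLL peptide was the positive control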
gsp ag: activates gsp, the McCune-Albright syndrome mutation; gsp mutant cells, cAMP HTRF, 30 min; control for the full effect not named in the record; Potency, µM (top dose mostly 76.9 µM), for the others: at the highest dose activation (cAMP increase), hits mostly activators; actives 0.13% (n = 340,000); active = well fitted activation curve with a large enough effect; inconclusive = small, poorly fitted or top-dose-only effect, or another doubt; inactive = no such curve, though single readings can be large or run the other way; cell line not stated here;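 further: phosphodiesterase inhibitor Ro 20-1724 added with compounds to block cAMP breakdown; potency means the concentration at half of the fitted maximal effect; nearly all actives have a fitted effect of over 60% in size; about a fifth of the inactives were tested at one dose only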
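Cells in DMEM/10% FBS with G418 were pretreated with compounds in DMSO plus […] (300 uM stock) for 30 min at 37C. cAMP was measured by HTRF (cAMP-d2 plus anti-cAMP antibody-K) after 30 min at room temperature.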
Sfp inh: inhibitors of Bacillus subtilis Sfp phosphopantetheinyl transferase; Biochemical Sfp PPTase activity, qHTS; Potency, µM, inactives show max response, negative = inhibition, actives largely listed as inhibitors; actives 3.5% (n = 310,000); AID 1490; active means well fitted inhibition curve with a large enough effect; inconclusive means small, poorly fitted or top-dose-only effect, or another doubt; inactive means no such curve, though single readings can be large or run the other way;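 further: the enzyme is Sfp with the accession as filed and its product quenches rhodamine fluorescence; potency means the concentration at half of the fitted maximal effect; 0% = enzyme reaction without inhibitor and -100% = no enzyme wells; top concentration of the series not given in the record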
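Step 1, compound plus 15 nM Sfp-PPTase, 15 min, room temperature. Step 2, add rhodamine-CoA (5 uM) and BHQ-2-YbbR (12.5 uM). Step 3, read 525/598 nm fluorescence at 0 and 30 min.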
gsp antagonist: antagonists of gsp mutant (McCune-Albright syndrome); gsp-mutant cells, cAMP HTRF, 30 min; control for the full effect not named in the record; Potency, µM (doses to about 76.9 µM), for the others: top-dose activity change, negative = inhibition, usual class: inhibitors; actives 0.4% (n = 340,000); AID 624288; active = falling curve of any shape with a large fitted effect; inconclusive = falling curve, mostly with a smaller effect; inactive = flat or rising curve; cell line not stated here;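 further: intracellular cAMP measured with PDE inhibitor Ro 20-1724 present during compound exposure; potency means the concentration at half of the fitted maximal effect; on the % scale 0 is the no-effect control and ±100 the full control effect; nearly all actives have a fitted effect of over 65% in size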
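HTRF cAMP measurement after 30 min RT detection following 30 min, 37C compound treatment alongside […] (added as 300 uM solution) in G418-selected cells seeded at 2000/well and grown 16–24 h.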
TRPV1 PAM: human TRPV1 potentiation; Q8NER1; TRPV1-expressing cells, Fluo-8 calcium influx, capsaicin EC20 potentiation; host cell line not named in the record; control for the full effect not named in the record; potentiation, % at 8.33 µM; actives 0.02% (n = 320,000); AID 540277; active means potentiation above 80%; inconclusive means 30% to 80%; inactive means below 30%; further: 0% is about no effect
Target sequence (Q8NER1 whole entry, looked up): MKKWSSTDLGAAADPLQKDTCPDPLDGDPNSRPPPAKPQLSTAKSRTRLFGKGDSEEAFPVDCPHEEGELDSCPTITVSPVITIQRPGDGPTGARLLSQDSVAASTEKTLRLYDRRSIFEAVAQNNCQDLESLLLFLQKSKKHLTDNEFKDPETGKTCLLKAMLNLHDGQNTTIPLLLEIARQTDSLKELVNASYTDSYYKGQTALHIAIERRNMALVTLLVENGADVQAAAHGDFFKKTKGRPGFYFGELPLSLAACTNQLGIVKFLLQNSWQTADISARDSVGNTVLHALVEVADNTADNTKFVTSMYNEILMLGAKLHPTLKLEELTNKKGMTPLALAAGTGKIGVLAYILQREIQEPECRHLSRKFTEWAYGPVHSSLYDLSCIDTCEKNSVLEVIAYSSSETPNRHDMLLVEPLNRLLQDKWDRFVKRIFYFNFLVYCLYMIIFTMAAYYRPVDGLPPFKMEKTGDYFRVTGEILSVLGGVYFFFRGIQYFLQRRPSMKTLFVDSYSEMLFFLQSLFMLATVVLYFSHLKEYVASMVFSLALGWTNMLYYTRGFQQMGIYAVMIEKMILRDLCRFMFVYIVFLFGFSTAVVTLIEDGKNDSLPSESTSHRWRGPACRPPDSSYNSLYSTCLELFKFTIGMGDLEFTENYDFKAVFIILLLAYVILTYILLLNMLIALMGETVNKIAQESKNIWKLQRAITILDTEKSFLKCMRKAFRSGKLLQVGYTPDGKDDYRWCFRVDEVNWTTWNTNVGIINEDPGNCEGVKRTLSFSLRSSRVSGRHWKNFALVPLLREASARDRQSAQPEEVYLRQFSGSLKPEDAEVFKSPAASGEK
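TRPV1-expressing cells were cultured overnight at 35.5C and loaded with Fluo-8 calcium dye for 40 to 90 min at room temperature. After a 10 s baseline, compound was added and calcium influx was read kinetically for 3 min (ex 480/em 520 nm).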
CtBP-E1A inh: inhibitors of CtBP/E1A interaction. actives 0.49% (n = 340,000). AID 651724. AlphaScreen GST-E1A/His-CtBP binding, 1536-well; hits give low values; control for the full effect not named in the record. activity change, % (concentration not given with the values); in the data active means activity change below about -65%; inconclusive means about -30% to -65%; inactive means above about -30%; further: on the % scale 0 is the no-effect control and ±100 the full control effect
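Steps: dispense buffer (Tris pH 8.0, NaCl 300 mM, TCEP 1 mM, BSA, Tween 20); add 5X protein mix (GST-E1A, His-CtBP, 125 nM each); pin 23 nL compound; 2 h at 37 °C, dark; add 5X beads (50 ug/mL); 1 h; read.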
* marks the source's active call; other numbers are inactive results; u = inconclusive; x = no result given; & = joins results of further samples; [ ] = another dose, or the depositor's remark.

The line under a structure holds: ClpP mod | Menin-MLL FL inh | gsp ag | Sfp inh | gsp antagonist | TRPV1 PAM | CtBP-E1A inh
Cc1sc2ncn(CC(=O)NCCN(C)C)c(=O)c2c1S(=O)(=O)N1CCC(C)CC1
 : -1.1% | -1.0 | 1%[15.4 µM] | 17% | 9% | -2 | -4
COc1ccc(S(=O)(=O)N2CCN(C(=O)c3sccc3-c3ccccc3)CC2)cc1
 : 2.0% | x | 19% | x | -4% | 9 | 1
Cc1ccc(S(=O)(=O)N2CCOCC2)cc1C(=O)OCC(=O)NC1CCCC(C)C1C (stereo not drawn)
 : 0.8% | x | -22% | x | -9% | -6 | 3
O=C1CC(C(=O)N2CCN(c3ccccc3)CC2)CN1Cc1ccccc1 (stereo not drawn)
 : 0.8% | x | 5% | x | 15% | x | -2
COc1ccc(C)c2sc(NC(=O)CCS(=O)(=O)c3ccccc3)nc12
 : -3.4% | 5.3 | u | -4% | u | 5 | -4
CCOc1ccc(NC(=O)CCn2cccc2)cc1
 : -0.3% | 0.0 | -2% | 17% | 2% | -1 | -3
Cc1ccc(N(CC(=O)NCc2ccco2)C(=O)CCC(=O)Nc2ccccn2)c(C)c1
 : x | -1.5 | -5%[15.4 µM] | 21% | 8% | 15 | -12
O=C(Nc1nnc(S(=O)(=O)N2CCCCCC2)s1)c1ccc(Br)cc1
 : -6.7%&-4.8% | 0.3 | 2% | 11% | 5% | 19 | -9
COc1ccc(/C=C2/SC(=S)N(CCC(=O)O)C2=O)cc1
 : -2.4% | 4.6 | 4% | 8% | -35% | 0 | -24
Cc1oc(-c2ccccc2)nc1CC(=O)O
 : -10% | -0.3 | 17% | 13% | u | 21 | 2
CCOC(=O)N1CCN(C(=O)COC(=O)c2ccc(N(C)C)cc2)CC1
 : 0.6% | x | 12% | x | 12% | x | -5
CCOc1ccc(-c2c(=O)n(OCc3ccc([N+](=O)[O-])cc3)c3ccccc3[n+]2[O-])c(OCC)c1
 : x | x | -9%[15.4 µM] | x | 11% | x | 3
O=C(COC(=O)c1n[nH]c2ccccc12)NC1CCCCC1
 : -1.6% | x | -1%[15.4 µM] | x | 2% | x | 5
CC(=O)Nc1cccc(-c2nc3ccccc3o2)c1
 : 4.3% | -4.2 | -25% | 14% | -8% | -15 | x
Cc1ccc(C(=O)CNc2ccccc2C)cc1
 : 1.5% | 3.8 | -39%[inhibitor] | -16% | 7% | -16 | 6
Cc1ccccc1C(=O)NC(=S)NCC(=O)c1ccccc1
 : 0.2% | 4.8 | u | -3% | -1% | 1 | -4
COc1ccccc1-c1cccc([C@@H]2C[C@H]3[C@H](CON3C)CN2C(=O)CCc2ccccc2)c1
 : 1.0% | x | x | x | -24% | x | -4
CC(=O)c1ccc(NC(=S)Nc2cccc(Cl)c2C)cc1
 : -1.0% | -0.4 | -10% | -3% | -3% | -2 | x
CCOc1ccccc1NC(=O)COC(=O)c1cc(C)oc1C
 : 0.9% | x | -3%[15.4 µM] | x | -7% | x | -2
Nc1nc(=O)n(C2CC(O)C(CO)O2)cc1F (stereo not drawn)
 : 1.7% | x | -35%[inhibitor] | x | 7% | x | 1
Cc1noc(NS(=O)(=O)c2ccc(NC(=O)c3cc(S(=O)(=O)N(C)c4ccccc4)ccc3Cl)cc2)c1C
 : 0.2% | x | 20% | x | -14% | x | x
COC(=O)CSc1nc(C)cc(Oc2ccccc2)n1
 : 0.0% | 0.1 | -29% | 13% | -7% | -13 | 11
CC(CCc1ccco1)NC(=O)CCc1nnc2ccc(NCc3ccc(Cl)cc3)nn12 (stereo not drawn)
 : -6.2% | x | 21% | 16% | -1% | -2 | x
Cc1ccc(CC2CC(=O)N(c3ccc4c(c3)OCCO4)C2=O)cc1 (stereo not drawn)
 : 1.4% | -0.8 | -1% | -3% | -2% | 3 | 3
O=C(O)c1ccc2c(c1)C(=O)/C(=C/c1ccccc1)C2=O
 : 1.0% | u | -10% | -1% | -3% | -3 | -6
CC(=O)CSc1nc2c(c(=O)[nH]c(=O)n2C)n1Cc1cccc(Br)c1
 : x | -1.2 | -43% | 45µM* | 8% | 15 | -11
CCOc1ncccc1C(=O)OCC(=O)N(CC)c1ccccc1
 : x | 1.5 | 8%[15.4 µM] | 11% | 18% | 1 | 10
NS(=O)(=O)c1ccc(NS(=O)(=O)c2ccc(NC(=S)Nc3ccccc3)cc2)cc1
 : x | 0.5 | 1%[15.4 µM] | -24% | 19% | 25 | 1
CCC(Oc1ccccc1)C(=O)N(CC)CC(=O)NCc1ccc(F)cc1 (stereo not drawn)
 : 1.5% | x | -11%[15.4 µM] | x | -15% | -4 | 9
O=c1c2cc(N3CCOCC3)ccc2[nH]c(=S)n1Cc1ccccn1
 : 6.1% | -18 | u | 20µM* | -10% | 0 | 4
Cc1cccc(C)c1NC(=O)COC(=O)CNC(=O)C1CCCCC1
 : 1.2% | x | -13% | x | -1% | -15 | x
CCOc1ccc(C(=O)O[C@H]2[C@H](Cc3ccccc3)NS(=O)(=O)[C@H]3C[C@@H]4C=C[C@]23O4)cc1
 : -1.3% | x | -48%[inhibitor] | x | 7% | -8 | 2
CCc1cc(C(=O)N/N=C/c2ccc(OC)cc2)c2ccccc2n1
 : x | -8.6 | 1% | 13% | 13% | -2 | -3
O=C(CC1C(=O)NCCN1Cc1c(F)cccc1Cl)NCc1ccccc1 (stereo not drawn)
 : x | 0.1 | 0%[15.4 µM] | -13% | 4% | -5 | 4
C[C@H](CO)N1C[C@H](C)[C@@H](CN(C)C)Oc2c(NC(=O)Cc3ccccc3)cccc2C1=O
 : -2.1% | x | x | x | -5% | x | 2
O=C(Cc1cccc(NC(=O)C2CCN(C(=O)C3CCCC3)CC2)c1)Nc1cccc(C(=O)N2CCCC2)c1
 : 1.3% | x | x | x | 1% | 7 | -5
Cn1cc[n+](C)c1COc1ccc(C=O)cc1
 : 0.5% | 0.0 | -26% | 12% | 4% | 8 | x
Clc1ccc(-c2noc(CSc3nnc(-c4ccncc4)n3-c3ccccc3)n2)cc1
 : -1.9% | 4.9 | -35%[inhibitor] | u | 32µM* | 9 | -10
CCN(CC)CCC(c1cc(OC)c(OC)c(OC)c1)c1c(OC)cc(OC)c2ccc(=O)oc12 (stereo not drawn)
 : -7.7% | 0.9&1.3 | x | 4%&23% | -6% | -8 | u
O=C(CN1CCOCC1)N1c2ccccc2Sc2ccc(Cl)cc21
 : 1.3% | x | 9% | x | x | x | 2
O=C(NCc1ccccn1)C1CC(c2ccccc2O)=NO1 (stereo not drawn)
 : x | -1.2 | 8%[15.4 µM] | -29% | 10% | -9 | 4
O=C(O)c1nsc(Cl)c1Cl
 : 0.9% | -1.8 | -62%[inhibitor] | 11% | -8% | 0 | 1
CCCCCC(=O)N/N=C(\C)c1ccc(Cl)cc1
 : -1.1% | 0.4 | 5% | -13% | -10% | -14 | 6
CC(=O)c1ccc(OCc2cc(C(=O)N(C)CCOc3ccc(C)cc3)no2)cc1
 : 0.1% | x | -23% | -12% | u | -5 | 1
CN(c1ccccc1)c1ccc(/C=C(\C#N)c2nnc3n2CCCCC3)cc1[N+](=O)[O-]
 : 0.9% | 3.8 | -19% | -9% | -12% | -12 | -4
CNc1ccccc1C(=O)OC
 : 4.2% | 3.8 | -5% | -8% | -1% | -7 | 8
CCNC(=O)CSc1nc(-c2ccc(F)cc2)cs1
 : 1.2% | 0.6 | 0% | 3% | -3% | 0 | x
COc1ccc(-c2c[n+]3c4n2CCCCC4=C(c2ccccc2)C3)cc1
 : 4.4% | 5.6 | 57% | -28% | -7% | 5 | -7
CCOC(=O)C(NC(=O)Nc1ccccc1)(OCC)C(F)(F)F (stereo not drawn)
 : -24% | 2.7 | u | 10% | 11% | -3 | -1
CCC/C(=N/Nc1ccc(Cl)cc1)c1cnnc(-c2ccccc2)n1
 : 0.1% | x | u | x | -2% | x | 8
CCN(CC)S(=O)(=O)c1ccc(C(=O)OC2CCCCC2CN(C)C)cc1 (stereo not drawn)
 : -3.4% | 2.7 | 0% | 11% | 0% | -2 | 0
COC(=O)CC1Nc2ccccc2SC1=O (stereo not drawn)
 : 0.1% | 0.7 | -43%[inhibitor] | 4% | 19% | 3 | 5
COc1ccccc1C(=O)NCCC(=O)N1CCN(c2cccc(C(F)(F)F)c2)CC1
 : 1.6% | x | 10% | x | -28% | -3 | 3
CC(C)c1nnc(NC(=O)c2cnccn2)s1
 : -1.0% | -1.5 | -46%[inhibitor] | -72% | 12% | 16 | -23
CCOC(=O)c1ccc2c(c1)C1C=CCC1C(C(=O)OCC)N2 (stereo not drawn)
 : x | -11 | -41%[inhibitor] | 45µM* | -13% | -7 | -6
C=CCn1nc(C(=O)OCC)cc1-c1sc(NC(=O)c2ccccc2)nc1C
 : -4.7% | x | -4% | x | x | x | 5
COCCn1c(-c2ccc(OC)c(OC)c2)nc2ccccc21
 : u | -4.1 | 9% | 9% | 9% | 15 | -1
CC(=O)Nc1ccc(C(=O)CSc2ncn(-c3ccccc3)n2)cc1
 : 0.7% | 4.7 | -29% | 8% | -31% | -2 | 4
CCOc1ccc(S(=O)(=O)Nc2nc3ccccc3nc2N2CCN(C)CC2)cc1
 : u | -1.4 | u | 9% | 1% | -13 | -5
O=C(O)/C(=C\c1ccc(Cl)cc1)c1ccc(F)cc1
 : x | 1.2 | 26%[15.4 µM] | 25% | -63% | 3 | -8
Cc1cc(C(=O)N/N=C/c2ccccn2)c2ccccc2n1
 : x | -4.2 | 18% | u | 18% | -1 | -15

Structures above that contain an NH in an aromatic ring, in the order listed:
The line under a structure holds: ClpP mod | Menin-MLL FL inh | gsp ag | Sfp inh | gsp antagonist | TRPV1 PAM | CtBP-E1A inh
O=C(COC(=O)c1n[nH]c2ccccc12)NC1CCCCC1
 : -1.6% | x | -1%[15.4 µM] | x | 2% | x | 5
CC(=O)CSc1nc2c(c(=O)[nH]c(=O)n2C)n1Cc1cccc(Br)c1
 : x | -1.2 | -43% | 45µM* | 8% | 15 | -11
O=c1c2cc(N3CCOCC3)ccc2[nH]c(=S)n1Cc1ccccn1
 : 6.1% | -18 | u | 20µM* | -10% | 0 | 4
